Bioassay records from PubChem BioAssay.
miR-21 FLuc: qHTS Assay for Modulators of miRNAs and/orActivators of miR-21; HeLa miR-21 FLuc reporter, luciferase, 48 h; Potency, µM (top dose mostly 38.3 µM), for inactives: at the highest dose reporter change, positive = more light; 340,000 tested, under 10 active; active = well fitted rising curve with a large enough effect; inconclusive = small, poorly fitted or top-dose-only effect; inactive = no such curve, though single readings can be large or run the other way;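 also: % of control where 0% means no effect; miR-21 action dims this reporter so a rising signal means less miR-21 action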
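Compounds were titrated across several concentrations (up to approximately 40 uM) and incubated 48 hours with HeLa miR-21-FLuc reporter cells (miR-21 target sequence downstream of FLuc, endogenous miR-21). Readout was firefly luciferase luminescence after lytic detection reagent.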
Rango dissoc inh: qHTS Assay for Inhibitors of RanGTP induced Rango (Ran-regulated importin-beta cargo) - Importin beta complex dissociation; 340,000 tested, 0.071% active; Potency, µM (series often up to 46.1 µM), for the others: at the top dose activity change, negative = inhibition; Biochemical FRET Rango-importin beta, RanGTP-induced dissociation; Snurportin-1 (Homo sapiens) + GTP-binding nuclear protein Ran (Homo sapiens) + Importin …; AID 540253, 2011; active means falling FRET ratio curve, often poorly fitted, with flat reads before Ran was added; inconclusive means other falling curves, or compound fluorescence or quenching; inactive means flat or rising ratio curve;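 also: potency is read from the fitted curve at half-maximal effect; % of control where 0% means no effect; nearly all actives have a fitted effect of over 45% in size; -100% = wells without RanGTP and RCC1; the record marks most hits as doubtful in a second field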
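Rango (0.1 uM)–importin beta (0.25 uM) complex; RanGTP-RCC1 trigger; 45 min RT; CFP/YFP FRET read.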
Rango-impB inh: qHTS Assay for Inhibitors of Rango (Ran-regulated importin-beta cargo) - Importin beta complex formation; Importin subunit beta-1 (Homo sapiens), Q14974; Rango CFP/YFP FRET sensor + importin beta, 45 min; Potency, µM (titrated, usually from 92.2 µM), for the others: at the top dose inhibition of complex formation; 340,000 tested, 0.031% active; AID 540263, 2011; active = rising FRET ratio curve, often small or poorly fitted; inconclusive = mostly compound fluorescence or quenching in the first reads; inactive = flat curves in all reads;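 also: potency is read from the fitted curve at half-maximal effect; 0% = DMSO wells and 100% = buffer wells lacking importin beta; nearly all actives have a fitted effect of over 15% in size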
Target sequence (Q14974 whole entry, looked up): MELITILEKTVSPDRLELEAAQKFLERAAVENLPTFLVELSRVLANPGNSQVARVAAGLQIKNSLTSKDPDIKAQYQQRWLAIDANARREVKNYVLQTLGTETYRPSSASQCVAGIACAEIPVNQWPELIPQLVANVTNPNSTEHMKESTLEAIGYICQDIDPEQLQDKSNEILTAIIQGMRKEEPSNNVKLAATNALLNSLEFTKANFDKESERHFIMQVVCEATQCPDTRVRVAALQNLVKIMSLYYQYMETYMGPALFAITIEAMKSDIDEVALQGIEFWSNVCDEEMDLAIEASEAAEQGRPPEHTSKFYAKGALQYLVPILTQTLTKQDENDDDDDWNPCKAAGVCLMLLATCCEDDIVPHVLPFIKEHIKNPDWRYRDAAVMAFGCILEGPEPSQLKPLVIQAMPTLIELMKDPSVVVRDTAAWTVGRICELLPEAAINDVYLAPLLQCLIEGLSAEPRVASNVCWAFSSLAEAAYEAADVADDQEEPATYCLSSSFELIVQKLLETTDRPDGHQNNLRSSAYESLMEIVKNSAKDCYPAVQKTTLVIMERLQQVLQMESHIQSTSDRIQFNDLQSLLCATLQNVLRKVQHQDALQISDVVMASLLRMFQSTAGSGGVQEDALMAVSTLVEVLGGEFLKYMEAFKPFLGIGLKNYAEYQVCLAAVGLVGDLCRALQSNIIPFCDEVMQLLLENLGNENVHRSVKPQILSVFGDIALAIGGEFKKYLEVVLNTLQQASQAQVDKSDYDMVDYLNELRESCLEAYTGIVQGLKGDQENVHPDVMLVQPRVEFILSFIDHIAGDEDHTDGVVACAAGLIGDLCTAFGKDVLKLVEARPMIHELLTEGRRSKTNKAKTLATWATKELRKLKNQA
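Inhibition scored from the CFP 486 nm/YFP 530 nm FRET ratio 45 min after adding 0.125 microM importin beta to 50 nM Rango biosensor preincubated 5 min with compound (room temperature, PBS with DTT, Tween-20, BSA). No-importin wells as positive control.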
GLA inh pH 4.5: qHTS Assay for Inhibitors of Human alpha-Galactosidase at pH 4.5; Alpha-galactosidase A (Homo sapiens), P06280; purified enzyme, 4-MU-alpha-Gal fluorescence, pH 4.5; activity change, negative = inhibition, % at 105 µM; 230,000 tested, under 10 active; AID 1467, 2008; inconclusive = small, poorly fitted or top-dose-only inhibition, or a rising curve; inactive = flat fitted curve, though single readings scatter; no compound was filed as active;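 also: 0% = full activity with enzyme and -100% = basal without enzyme; dose as in the result columns while the protocol names 77 µM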
* = called active by the depositor; ? = inconclusive; nt = no result given; & = joins results of further samples. This is a subset. The share of hits here may be higher or lower than overall.

| miR-21 FLuc | Rango dissoc inh | Rango-impB inh | GLA inh pH 4.5 | mol |
| --- | --- | --- | --- | --- |
| -4% | -3% | 3.9% | -3 | O=C(CNc1cccc2ccccc12)N/N=C/c1ccc([N+](=O)[O-])cc1 |
| -3% | ? | 0.5% | 0 | COc1cccc(NC(=S)NCc2ccncc2)c1 |
| 0% | 7% | 0.4% | 5 | COc1ccc(N(C(=O)c2cc3ccccc3oc2=O)C2C=CS(=O)(=O)C2)c(OC)c1 (stereo not given) |
| -22% | 1% | 1.5% | 1 | Cc1ccc(/C(N)=N/OC(=O)CCC2CCCCC2)cc1 |
| 4% | 3% | 0.1% | nt | O=C(c1ccc([N+](=O)[O-])cc1[N+](=O)[O-])N1CCc2ccccc21 |
| -1% | -3% | -4.1% | -3 | Cc1nn(C)cc1/C=C(/C#N)C(N)=O |
| -2% | 6% | 5.4% | -3 | CCC(C)NCC(O)COCc1ccc(Cl)cc1 (stereo not given) |
| -43% | 32% | 1.0% | 3 | NS(=O)(=O)c1ccc(NCC2COc3ccccc3O2)c([N+](=O)[O-])c1 (stereo not given) |
| 1% | 1% | 0.6% | ? | CC1CCN(C(=O)Cn2cc(C(=O)c3ccco3)c3ccccc32)CC1 |
| -6% | -15% | 4.3% | 3 | O=C1CNC(=S)N1CCc1ccccc1Cl |
| 1% | 0% | -0.1% | nt | CCC1CCC(C(=O)NC(CCSC)C(=O)NCCc2ccc(S(N)(=O)=O)cc2)CC1 (stereo not given) |
| 0% | -8% | -3.3% | -2 | COC(=O)c1cn(NC(=O)c2cccnc2)c(=O)c2ccccc12 |
| 0% | -20% | 0.0% | nt | COC(=O)c1cc(S(=O)(=O)NCCCN2CCCC2=O)cn1C |
| 17% | 1% | 0.1% | -8 | Cc1ccc(-c2csc(NC(=O)c3ccc4c(=O)n5c(nc4c3)CCCCC5)n2)cc1 |
| 5% | 12% | -5.4% | nt | O=C(CN1CCC(NC(=O)c2cccc(F)c2)CC1)Nc1ccc(Br)cc1 |
| -4% | -11% | -1.2% | nt | CCc1ccc(N2CC(C(=O)NCCC3=CCCCC3)CC2=O)cc1 (stereo not given) |
| -8% | ? | ? | nt | COc1cc2c(cc1OC)CN(C(=O)c1ccc3[nH]c(C)c(C)c3c1)CC2 |
| -3% | 3% | ? | 4 | COc1ccc(/C=C2\CCC(C3CCCC3)C2=O)cc1Cn1nc(C)cc1C (stereo not given) |
| -4% | -4% | 3.5% | 4 | Cc1ccc(C2(c3noc(CN4CCC(C(=O)N5CCOCC5)CC4)n3)CCCC2)cc1 |
| -1% | 4% | -1.8% | nt | Cc1oc2c(c(C)cc3oc(=O)c(CC(=O)NCCCN4CCCC4=O)c(C)c32)c1C |
| -42% | 3% | -2.7% | nt | COc1ccc(CNC(=O)c2ccc3oc(C(C)C)nc3c2)cc1 |
| nt | 27% | -2.9% | nt | COc1ccc(OC)c(S(=O)(=O)NCC(=O)NC2CCCc3ccccc32)c1 (stereo not given) |
| 5% | -4% | -0.4% | nt | CCOC(=O)CN1C(=O)CC(c2ccc([N+](=O)[O-])cc2)C1=O (stereo not given) |
| -36% | ? | -0.3% | -5 | COc1cccc(NC(=S)Nc2ccc(Br)cc2Cl)c1 |
| -1% | ? | -1.1% | nt | CCCn1c(=O)c2c(nc3n2CC(C)CN3Cc2ccccc2)n(C)c1=O (stereo not given) |
| -1% | 10% | -2.5% | nt | Cc1ccc(NC(=O)CC2C(=O)NCCN2C(=O)c2ccc(F)cc2)cc1 (stereo not given) |
| -5% | 2% | 1.0% | nt | COCCNc1nc(N)c([N+](=O)[O-])c(N2CCCCCC2)n1 |
| nt | 11% | -2.7% | nt | Cc1ccc(C(=O)CCC(=O)OCC(=O)N2CCN(S(=O)(=O)c3ccc(C)cc3C)CC2)cc1 |
| nt | -8% | 0.7% | nt | CCn1c(CCl)nc2cc(S(=O)(=O)N3CCOCC3)ccc21 |
| 14% | -9% | 1.1% | nt | COc1ccc(C(O)(CCC(C)C)C(CN2CCOCC2)c2ccc(Cl)cc2)cc1 (stereo not given) |
| -4% | -1% | 2.8% | 4 | S=C1NC2CCCCC2N1 (stereo not given) |
| 0% | 4% | -0.1% | -9 | O=S(=O)(c1ccccc1)c1nc(-c2ccccc2)oc1N1CCOCC1 |
| -64% | -2% | -0.6% | -11 | N#C/C(=C\c1c[nH]c2ccccc12)c1nnc2n1CCCCC2 |
| nt | 20% | -3.7% | nt | CC(C)Oc1ccc(S(=O)(=O)N2CCCCC2)cc1NC(=O)CC1OC(=O)c2ccccc21 (stereo not given) |
| -42% | 0% | -2.1% | nt | O=C1c2ccccc2NC(c2ccc(O)c(O)c2)N1c1ccccc1Cl (stereo not given) |
| -1% | 10% | 3.8% | nt | COc1ccc(CC(=O)NCC2CCCN(Cc3ccc(SC)cc3)C2)cc1 (stereo not given) |
| -15% | 3% | -2.8% | nt | COc1ccc(OCC(=O)Nc2ccc3c(c2)OCO3)cc1 |
| 28% | 0% | 8.3% | -2 | CN1CCN(C(=O)/C=C/c2ccc([N+](=O)[O-])o2)CC1 |
| 1% | -11% | -3.0% | nt | O=C(O)c1ccc(S(=O)(=O)NCc2cccnc2)cc1 |
| -1% | 1% | 6.8% | -20 | O=c1nc(-c2ccccc2)cc(C(F)(F)F)[nH]1 |
| -8% | 10% | -0.6% | 1 | Cc1cccc(N(CC(=O)NC(C)(C)C)C(=O)CS(=O)CC(=O)Nc2ccc(F)cc2)c1 (stereo not given) |
| 9% | 16% | -3.1% | nt | COc1ccc(OC)c(CCNC(=O)c2ccc(CS(=O)Cc3ccc(Cl)cc3)o2)c1 (stereo not given) |
| nt | -12% | -1.1% | nt | COc1cc(OC)c(OC)cc1/C=N/NC(=O)c1ccc(CSc2nc(C)cc(C)n2)cc1 |
| nt | 11% | -2.0% | nt | Cc1noc(C)c1S(=O)(=O)Nc1ccc2c(c1)CC(=O)N([C@H](C)CO)C[C@H](C)[C@@H](CN(C)CC1CC1)O2 |
| -4% | -8% | 6.0% | 3 | CN=C1C([N+](=O)[O-])=CC=C2C1=NC1(CCCCC1)N2O |
| -10% | 0% | 0.9% | 1 | Cc1ccc(CCNC(=O)C2CCCN(S(=O)(=O)c3c(C)nn(C)c3C)C2)cc1 (stereo not given) |
| 9% | -1% | -0.8% | nt | Cc1nn(C)c(Cl)c1CN1CCC(Oc2ccc(C(=O)N3CCCC3)cc2)CC1 |
| 15% | 2% | 0.7% | -1 | CCOc1cc(C2C3=C(CCCC3=O)Nc3ccc4ncccc4c32)ccc1O (stereo not given) |
| nt | 9% | -0.2% | nt | O=C(NNC(=O)c1cc(Br)c(Br)s1)c1ccncc1 |
| -14% | 0% | 1.5% | 3 | Cc1ccc2cc(C#N)c(N3CCN(C)CC3)nc2c1 |
| 6% | -1% | ? | -4 | CC(C)=CCN1CCN(Cc2nc(-c3ccc(F)cc3)cs2)CC1CCO (stereo not given) |
| -7% | 16% | 2.4% | -4 | Cc1ccnc(NC2OC(=O)c3ccccc32)c1 (stereo not given) |
| nt | 7% | -1.0% | nt | O=c1oc(CCO)cc2ccc(C#Cc3ccsc3)cc12 |
| -3% | 0% | 1.0% | 0 | Cc1ccccc1CNC(=O)/C=C\C(=O)O |
| -7% | 2% | -1.7% | -7 | Cn1ccnc1C1CCCCN1C(=O)c1cc(COc2ccc(F)cc2Cl)on1 (stereo not given) |
| -12% | -6% | 3.5% | 5 | CCn1cc(/C=N\NC(=O)c2ccc(F)cc2)cn1 |
| -15% | -1% | -2.8% | -4 | CC(=O)c1c(C)nn(-c2ccccc2)c1C |
| nt | 3% | 11% | nt | COc1ccc(CCNC(=O)/C=C/c2ccc(S(=O)(=O)N3CCOCC3)cc2)cc1 |
| 0% | 5% | 2.8% | -4 | O=C(CN1C(=O)C2CC=CCC2C1=O)NCC1COc2ccccc2O1 (stereo not given) |
| 0% | 11% | -2.5% | -14 | Nc1nc(-c2cccnc2)nn1C(=O)c1ccc(F)cc1 |

Next section.
| miR-21 FLuc | Rango dissoc inh | Rango-impB inh | GLA inh pH 4.5 | mol |
| --- | --- | --- | --- | --- |
| 2% | -4% | 0.8% | nt | Cc1nnc2c(N3CCN(CCO)CC3)nc3ccccc3n12 |
| 5% | -17% | -3.8% | nt | CC(C)NC(=O)c1ccc(CN2CCC(Cc3ccccc3)CC2)cc1 |
| -18% | -2% | 1.9% | -3 | O=C(OCC#CCSc1nnc(-c2cccc3ccccc23)o1)c1cccs1 |
| -1%&-1% | -13% | -5.2% | nt | CC(C)CN(C(=O)c1cccc(S(=O)(=O)N2CCCCC2)c1)C1CCS(=O)(=O)C1 (stereo not given) |
| -3% | -3% | 2.6% | nt | COCC1CCN(C(=O)c2ccc(OC3CCN(Cc4ccccn4)CC3)cc2)C1 (stereo not given) |
| -4% | -4% | 0.3% | 4 | NC(=O)c1cc(S(=O)(=O)NC2CCCCC2)co1 |
| -30% | -10% | 1.2% | 2 | C/C(=N\NC(=S)NCc1ccccc1)c1ccco1 |
| -10% | 25% | 15% | -5 | O=C(c1cccs1)N1CCN(Cc2ccccc2)CC1 |
| nt | -12% | -0.3% | nt | Cc1sc2ncn(CC(=O)N(C)C3CCCCC3)c(=O)c2c1C |
| 0% | -2% | 0.0% | 5 | COc1cc(C(c2oc(CO)cc(=O)c2O)c2oc(CO)cc(=O)c2O)cc(OC)c1OC |
| -11% | 2% | -0.7% | -12 | Cc1c(O)cc2n(c1=O)-c1ccccc1C2(C)C |
| -40% | 16% | 1.6% | 4 | O=C(CC1SCCNC1=O)Nc1cccc(Cl)c1 (stereo not given) |
| nt | -12% | 0.1% | nt | Cc1cc(C)c(NC(=O)CCc2c(C)noc2C)c(C)c1 |
| -2% | 1% | -6.6% | -15 | CCCN1CCC(=NNC(=O)CSc2cc(C)c(Br)cc2C)CC1 |
| -23% | -7% | -0.3% | -10 | COc1ccc(N(C)C(=O)c2cc3c(Cl)nc4ccccc4c3s2)cc1 |
| -1% | 0% | 0.1% | -4 | Cc1ccc(-c2ccc(/C=N\NC(=O)c3cc4c(ccc5ccccc54)o3)o2)cc1[N+](=O)[O-] |
| 10% | 4% | ? | nt | COc1ccc(N(C(=O)c2snc(C(N)=O)c2N)C(C(=O)NCc2ccc(F)cc2)c2ccc(C)o2)c(OC)c1 (stereo not given) |
| 1% | 29% | -0.2% | nt | CSc1ccc(C(=O)C2CCCN(C(=O)Cn3cnnn3)C2)cc1 (stereo not given) |
| nt | -9% | ? | nt | COc1ccc(OCCCC(=O)OCC(=O)Nc2ccc(Cl)cn2)cc1 |
| -2% | -14% | -1.0% | nt | CC(CC(F)(F)F)N1CCC(n2nccc2NC(=O)CCOc2ccccc2)CC1 (stereo not given) |
| 0% | 1% | -0.8% | 3 | Cc1nc2ccccc2c(=O)n1NC(=O)c1ccccc1Cl |
| 0% | -6% | 1.9% | 3 | Cc1c(NC(=O)C(C)Sc2n[nH]c(N)n2)c(=O)n(-c2ccccc2)n1C (stereo not given) |
| -3% | -7% | 0.7% | -8 | Cc1cc(C)nc(NC2=NCC(=O)N2c2cccc(Cl)c2)n1 |
| -2% | 2% | 2.9% | 1 | COC(=O)c1cc(OC)c(OC)cc1NC(=O)Cn1nnc(-c2ccccc2Cl)n1 |
| -8% | -24% | -2.3% | -7 | C=CCn1c(SCc2ccccc2)nnc1-c1cccnc1 |
| -41% | -8% | 0.6% | -1 | CC(=O)Nc1ccc(NC(=O)c2ccccc2F)cc1 |
